A1 apoptosis 2: A1 inhibitors via caspase activation, primary screen, cell-based, luminescence, HTS, two replicates | MEF A1-2A-BIM cells, caspase-Glo luminescence, 3 h; percent of clofoctol response, DMSO zero | caspase activation, % (no concentration beside the values) | 24,000 tested, under 10 active; in the data active = caspase activation above about 5.9%;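 note: wells of about 30 µL received 50 nL stock; the first replicate is given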
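Test system – A1-2A-BIM-expressing MEF cells · Input – 2500 cells/well · Medium – RPMI-1640 growth medium with 10% FBS · Compound dosing – 50 nL pinned compound · Timing – 3 h compound exposure at 37 °C · Technique – Caspase-Glo luminescence (DEVD substrate) · Evaluation – Caspase-3/7 activity from luminescence increase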
Active calls of the source: *.

Molecule	A1 apoptosis 2
C[C@@H]1CN([C@H](C)CO)C(=O)c2cc(NC(=O)Nc3cccc4ccccc34)ccc2O[C@H]1CN(C)Cc1ccc(Oc2ccccc2)cc1	1.3
CC(C)(C)[C@H]1C=C(C(=O)O)O[C@@H](OCCCCO)C1	0.2
Cc1noc(C)c1S(=O)(=O)Nc1ccc2c(c1)C(=O)N([C@@H](C)CO)C[C@H](C)[C@@H](CN(C)S(=O)(=O)c1cn(C)cn1)OCCCC[C@H](C)O2	-0.1
COc1ccc(NC(=O)Nc2ccc3c(c2)C(=O)N([C@H](C)CO)C[C@H](C)[C@H](CN(C)C(=O)Cc2ccccc2)OCCCC[C@@H](C)O3)cc1	-0.8
C[C@H]1CCCCO[C@H](CN(C)C(=O)CCC(F)(F)F)[C@@H](C)CN([C@@H](C)CO)C(=O)c2cc(NS(C)(=O)=O)ccc2O1	0.8
C[C@H]1CN([C@@H](C)CO)C(=O)c2cccc(NC(=O)C3CCOCC3)c2O[C@H]1CN(C)Cc1ccc(Oc2ccccc2)cc1	-0.9
C[C@H](CO)N1C[C@H](C)[C@H](CN(C)CC2CC2)Oc2ccc(NC(=O)CCN3CCOCC3)cc2C1=O	-1.8
COc1ccc(CN(C)C[C@H]2OCCCC[C@H](C)Oc3ccc(NS(=O)(=O)c4ccc(Cl)cc4)cc3C(=O)N([C@@H](C)CO)C[C@@H]2C)cc1	-1.2
C[C@@H]1CN([C@H](C)CO)C(=O)c2cc(NC(=O)Cn3cnnn3)ccc2O[C@@H]1CN(C)C(=O)Nc1ccccc1	-0.2
NC(=O)NCC#Cc1ccc2c(c1)[C@]1(C(=O)N2)[C@H](c2ccccc2OCCO)N2[C@H](c3ccccc3)[C@H](c3ccccc3)OC(=O)[C@H]2[C@@H]1C(=O)NC[C@H](O)c1ccccc1	0.4
C[C@@H]1CN([C@H](C)CO)C(=O)c2cccc(NC(=O)c3nc4ccccc4s3)c2O[C@@H]1CN(C)S(=O)(=O)c1cccs1	2.9
C[C@@H]1CN([C@@H](C)CO)C(=O)c2cc(NC(=O)Nc3cccc4ccccc34)ccc2O[C@@H]1CN(C)Cc1ccc(Oc2ccccc2)cc1	0.4
NC(=O)C1=C[C@H](c2ccc(C(F)(F)F)cc2)C[C@H](OCc2ccc(CO)cc2)O1	-1.4
C[C@H](CO)N1C[C@H](C)[C@@H](CN(C)C(=O)Nc2ccc3c(c2)OCO3)Oc2ccc(NC(=O)CCCCCC(=O)Nc3ccccc3N)cc2C1=O	-0.3
C[C@@H]1CCCCO[C@@H](CN(C)C(=O)Nc2cccc3ccccc23)[C@@H](C)CN([C@H](C)CO)C(=O)c2cc(NC(=O)C3CCCCC3)ccc2O1	1.7
C[C@H]1CN([C@@H](C)CO)C(=O)Cc2cc(NC(=O)Nc3ccc4c(c3)OCO4)ccc2O[C@@H]1CN(C)C(=O)NC1CCCCC1	-0.5
COc1ccc(NC(=O)Nc2cccc3c2O[C@@H](CN(C)S(=O)(=O)c2ccc(OC)cc2)[C@H](C)CN([C@@H](C)CO)C3=O)cc1	-0.2
COc1ccc(NC(=O)N(C)C[C@@H]2Oc3c(NC(=O)c4ccc(-c5nccs5)cc4)cccc3C(=O)N([C@@H](C)CO)C[C@@H]2C)cc1	0.2
C[C@@H]1CN([C@H](C)CO)C(=O)c2cc(NC(=O)Cn3cnnn3)ccc2O[C@H]1CN(C)C(=O)Nc1ccc2c(c1)OCO2	0.3
COc1ccc(NC(=O)N(C)C[C@@H]2OCCCC[C@@H](C)Oc3ccc(NS(=O)(=O)c4ccc(OC)cc4)cc3C(=O)N([C@@H](C)CO)C[C@@H]2C)cc1	0.1

(next part)
Molecule	A1 apoptosis 2
O=[N+]([O-])c1cccc(/C=C/CO)c1	0.0
C[C@H]1CN([C@@H](C)CO)C(=O)CCCn2cc(nn2)CO[C@H]1CN(C)S(=O)(=O)c1cccc(C#N)c1	1.6
C[C@H]1CN([C@@H](C)CO)C(=O)Cc2cc(NS(=O)(=O)c3ccccc3)ccc2O[C@H]1CN(C)CC1CCCCC1	-0.8
C[C@H]1CN([C@@H](C)CO)C(=O)CCCn2cc(nn2)CO[C@H]1CN(C)S(=O)(=O)c1ccc2c(c1)OCCCO2	-0.5
COc1ccc([Si](C)(C)[C@H]2[C@H](CCn3cc(CCO)nn3)O[C@@]3(C(=O)N(C)c4ccccc43)[C@@H]2C)cc1	-0.1
C[C@@H]1CN([C@@H](C)CO)C(=O)c2cc(NS(=O)(=O)c3ccccc3)ccc2O[C@H]1CN(C)C	-0.4
COc1ccc(S(=O)(=O)N(C)C[C@@H]2OCCCC[C@@H](C)Oc3ccc(NS(=O)(=O)c4c(C)noc4C)cc3C(=O)N([C@H](C)CO)C[C@H]2C)cc1	-0.8
C[C@@H]1CN([C@H](C)CO)C(=O)c2cc(NC(=O)c3ccccc3)ccc2O[C@@H](C)CCCCO[C@H]1CN(C)C(=O)Nc1ccc2c(c1)OCO2	1.6
O=C(NO)c1ccc(C(=O)N/N=C/c2ccccc2Br)cc1	-1.6
C[C@@H]1CN([C@H](C)CO)C(=O)c2cc(NC(=O)CCCN(C)C)ccc2O[C@@H](C)CCCCO[C@@H]1CN(C)Cc1ccc(C(=O)O)cc1	0.7
COc1ccc(NC(=O)N(C)C[C@H]2Oc3ccc(N(C)C)cc3C(=O)N([C@@H](C)CO)C[C@@H]2C)cc1	0.0
C[C@H](CO)N1C[C@H](C)[C@@H](CN(C)Cc2ccc(C(F)(F)F)cc2)Oc2c(NC(=O)c3ccncc3)cccc2C1=O	0.4
C[C@@H]1CCCCO[C@@H](CN(C)C(=O)CCC(F)(F)F)[C@@H](C)CN([C@H](C)CO)C(=O)c2cc(NC(=O)c3ccncc3)ccc2O1	1.0
COc1ccc(NC(=O)Nc2ccc3c(c2)C(=O)N([C@H](C)CO)C[C@@H](C)[C@@H](CN(C)S(=O)(=O)c2ccc(F)cc2)OCCCC[C@@H](C)O3)cc1	-0.8
C[C@@H]1CCCCO[C@H](CN(C)Cc2ccc(C(=O)O)cc2)[C@@H](C)CN([C@H](C)CO)C(=O)c2cc(NC(=O)NC3CCCCC3)ccc2O1	-0.9
C[C@H](CO)N1C[C@H](C)[C@@H](CN(C)Cc2ccc(Cl)c(Cl)c2)Oc2ccc(NC(=O)C3CCCCC3)cc2CC1=O	0.5
CNC[C@H]1Oc2c(NC(=O)Nc3ccc(OC)cc3)cccc2C(=O)N([C@H](C)CO)C[C@H]1C	0.2
C[C@@H]1CCCCO[C@H](CN(C)Cc2ccc(Cl)c(Cl)c2)[C@@H](C)CN([C@H](C)CO)C(=O)c2cc(NC(=O)NC3CCCCC3)ccc2O1	-0.6
C[C@H](CO)N1C[C@H](C)[C@@H](CN(C)C(=O)Nc2ccc(N3CCCCC3)cc2)OCc2cn(nn2)CCCC1=O	-0.5
C[C@@H]1CN([C@H](C)CO)C(=O)c2cc(NC(=O)Cc3ccccc3)ccc2O[C@H]1CN(C)CC1CCCCC1	-0.1

Other compounds.
| Molecule | A1 apoptosis 2 |
| --- | --- |
| C[C@@H]1CN([C@@H](C)CO)C(=O)c2cc(NC(=O)CCC(F)(F)F)ccc2O[C@@H](C)CCCCO[C@H]1CN(C)Cc1ccc(C(F)(F)F)cc1 | 2.0 |
| COc1ccc(S(=O)(=O)N(C)C[C@@H]2Oc3ccc(NC(=O)Nc4ccc(F)cc4)cc3C(=O)N([C@@H](C)CO)C[C@@H]2C)cc1 | -0.7 |
| COc1ccc(NC(=O)N(C)C[C@H]2Oc3ccc(NS(=O)(=O)c4ccccc4)cc3C(=O)N([C@H](C)CO)C[C@H]2C)cc1 | -0.3 |
| C[C@H](CO)N1C[C@H](C)[C@H](CN(C)S(=O)(=O)c2ccc(Oc3ccccc3)cc2)OCc2cn(nn2)CCCC1=O | -1.5 |
| C[C@@H]1CN([C@H](C)CO)C(=O)c2cccc(NS(=O)(=O)c3cn(C)cn3)c2O[C@H]1CN(C)S(=O)(=O)c1cccs1 | -1.1 |
| COc1ccc(S(=O)(=O)N(C)C[C@H]2Oc3ccc(NC(=O)Nc4ccc(C(F)(F)F)cc4)cc3C(=O)N([C@@H](C)CO)C[C@H]2C)cc1 | -0.9 |
| COc1ccc(NC(=O)Nc2ccc3c(c2)CC(=O)N([C@H](C)CO)C[C@@H](C)[C@@H](CN(C)Cc2ccc(C(=O)Nc4ccccc4N)cc2)O3)cc1 | 0.9 |
| C[C@H]1CN([C@@H](C)CO)C(=O)Cc2cc(NC(=O)Cn3cnnn3)ccc2O[C@@H]1CN(C)C(=O)NC1CCCCC1 | 0.8 |
| C[C@@H]1CCCCO[C@@H](CN(C)C(=O)C2CCCCC2)[C@@H](C)CN([C@@H](C)CO)C(=O)c2cc(NC(=O)NC3CCCCC3)ccc2O1 | 1.1 |
| O=C(CCCCCC(=O)Nc1ccccc1O)N/N=C/c1cccs1 | -0.1 |
| C[C@@H]1CN([C@H](C)CO)C(=O)Cc2cc(NC(=O)Nc3ccc4c(c3)OCO4)ccc2O[C@H]1CN(C)CC1CCCCC1 | -0.3 |
| C[C@@H]1CN([C@H](C)CO)C(=O)c2cc(NC(=O)NC3CCCCC3)ccc2O[C@H]1CN(C)Cc1ccc(C(=O)O)cc1 | -0.4 |

The listing continues:
| Molecule | A1 apoptosis 2 |
| --- | --- |
| C[C@@H]1CN([C@@H](C)CO)C(=O)c2cc(NS(=O)(=O)c3cccs3)ccc2O[C@@H](C)CCCCO[C@H]1CN(C)S(=O)(=O)c1cccs1 | 1.9 |
| Cc1noc(C)c1NC(=O)N(C)C[C@@H]1Oc2ccc(NC(=O)Cc3cn(C)c4ccccc34)cc2CC(=O)N([C@@H](C)CO)C[C@H]1C | 0.8 |
| C[C@H](CO)N1C[C@H](C)[C@H](CN(C)S(=O)(=O)c2cn(C)cn2)Oc2ccc(NC(=O)Cc3cn(C)c4ccccc34)cc2CC1=O | 1.2 |
| C[C@@H]1CCCCO[C@H](CN(C)C(=O)Nc2ccccc2)[C@@H](C)CN([C@H](C)CO)C(=O)c2cc(NC(=O)c3ccccc3)ccc2O1 | -1.2 |
| Cc1noc(C)c1S(=O)(=O)Nc1ccc2c(c1)C(=O)N([C@H](C)CO)C[C@H](C)[C@H](CN(C)Cc1ccccc1)O2 | 0.0 |
| COc1ccc(CN(C)C[C@H]2OCCCC[C@@H](C)Oc3ccc(NC(=O)Nc4c(C)noc4C)cc3C(=O)N([C@@H](C)CO)C[C@H]2C)cc1 | -1.5 |
| CNC[C@H]1Oc2ccc(NC(=O)Nc3ccc4c(c3)OCO4)cc2C(=O)N([C@@H](C)CO)C[C@H]1C | 0.6 |
| COc1cc(/C=N/NC(=O)CCCCC(=O)NO)c([N+](=O)[O-])cc1OC | -0.2 |
| C[C@@H]1CN([C@@H](C)CO)C(=O)Cc2cc(NC(=O)CCN3CCOCC3)ccc2O[C@@H]1CN(C)S(=O)(=O)c1cccs1 | -1.0 |
| COc1ccc(NC(=O)Nc2ccc3c(c2)C(=O)N([C@H](C)CO)C[C@@H](C)[C@H](CN(C)CC2CC2)OCCCC[C@H](C)O3)cc1 | 0.9 |
| C[C@@H]1CN([C@H](C)CO)C(=O)Cc2cc(NC(=O)Nc3cccc4ccccc34)ccc2O[C@@H]1CN(C)C(=O)Nc1ccccc1 | 0.1 |
| C[C@H](CO)N1C[C@H](C)[C@@H](CN(C)C(=O)Nc2ccc(F)cc2)OCCCC[C@H](C)Oc2ccc(NC(=O)Nc3cccc4ccccc34)cc2C1=O | 1.0 |

(listing goes on)
| Molecule | A1 apoptosis 2 |
| --- | --- |
| C[C@@H]1CN([C@H](C)CO)C(=O)CCCn2nncc2CO[C@H]1CN(C)S(C)(=O)=O | 0.5 |
| C[C@@H]1CCCCO[C@@H](CN(C)C(=O)C2CCCCC2)[C@H](C)CN([C@H](C)CO)C(=O)c2cc(NS(=O)(=O)c3ccc(F)cc3)ccc2O1 | 2.7 |
| C[C@@H]1CN([C@@H](C)CO)C(=O)c2cccc(NC(=O)Nc3cccc4ccccc34)c2O[C@H]1CN(C)C(=O)Nc1ccc(C(F)(F)F)cc1 | 0.3 |
| C[C@@H]1CN([C@H](C)CO)C(=O)c2cc(NC(=O)Nc3ccc(C(F)(F)F)cc3)ccc2O[C@@H](C)CCCCO[C@H]1CN(C)C(=O)Nc1ccc(F)cc1 | -0.9 |
| C[C@@H]1CN([C@H](C)CO)C(=O)c2cc(NC(=O)NC3CCCCC3)ccc2O[C@@H]1CN(C)S(C)(=O)=O | 0.9 |
| O=C(N/N=C/Cc1ccccc1)c1ccccn1 | -2.2 |
| C[C@@H]1CCCCO[C@H](CN(C)Cc2ccncc2)[C@H](C)CN([C@@H](C)CO)C(=O)c2cc(NS(=O)(=O)c3ccc(Cl)cc3)ccc2O1 | 1.1 |

From PubChem BioAssay

This is a subset, so the mix of outcomes need not match the whole.
